# Screening results from PubChem.
# Sa RN4220 lethal = kills Staphylococcus aureus RN4220. AID 1259311. inhibition, % (test concentration not listed). 330,000 compounds, 0.33% hits. S. aureus RN4220 growth, OD600, 16 h;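 active means z-score of -3 or lower and OD600 up to 0.18 on both plates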;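 further: plate controls were untreated cells for no effect and reference antibiotic for full effect; stock transfer was 100 nL into about 80 µL; one replicate is shown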
# Sa ugtP lethal = compounds lethal to S. aureus RN4220 ugtP deletion mutant; AID 1259309; growth inhibition, % (no concentration beside the values); 330,000 compounds, 0.54% hits; OD600 growth, 16 h; some inactives read as strong as hits;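 active means z-score under -3 and OD600 up to 0.15 on both plates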;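 further: plate controls were untreated wells for no effect and antibiotic for full effect; wells of about 80 µL received 100 nL stock; the first replicate is given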
# BJeLR viability = kills HRASV12-expressing BJeLR cells; AID 1554; BJeLR (HRASV12) viability, CellTiter-Glo ATP luminescence, 48 h; reference of the scale not given here; 300,000 compounds, 0.17% hits; inhibition, % (no concentration beside the values);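 active means replicate mean above 50%; inconclusive means above 50% but judged a plate artefact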;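 further: 50 nL library stock added to about 25 µL; numbers are from one replicate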
# PrP 5UTR inh = inhibition of PrP 5' UTR reporter expression; cell-based PrP 5' UTR mRNA reporter, plate reader; inhibition, % (no concentration beside the values); 340,000 compounds, 0.35% hits;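 active means every replicate at 50% or more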;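 further: 0 = median of the neutral control wells; tested in H4 reporter cells; numbers are from one replicate; inactives centre near -14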
# Bead autofluor = counter-screen for toxin protease inhibitors: compound fluorescence. 360,000 compounds, 3.1% hits. AID 624483. compound autofluorescence counterscreen, microsphere flow cytometry; active compounds read high. fluorescence intensity (no concentration beside the values);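 active means at least 3 SD above the mean of all compounds, about 16000 in these data; inconclusive means too few beads counted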;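 further: 100 nL of 1 mM stock went into each well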
# Mtb hypoxia inh = reduces hypoxia-regulated biosensor signal in M. tuberculosis. M. tuberculosis hypoxia-regulated fluorescent reporter, fluorescence. fluorescence inhibition, % (test concentration not listed). 300,000 compounds, 0.1% hits;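 active means 35 to 45% if threefold the growth effect, above 45% if 1.5-fold the growth effect; inactive means the rest, general growth blockers included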;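 further: wells of about 50 µL received 100 nL stock; 0% = vehicle wells and 100% = reference inhibitor wells; whole bacteria with a GFP reporter of the hypoxia response; strong numbers were not always called active; many hits fall short of the cut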
# Mtb hypoxia inh growth = further read-out of Mtb hypoxia inh, marked with its call; growth inhibition, %; measured here: M. tuberculosis growth (absorbance);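 0% = vehicle and 100% = reference antibiotic; read after six days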
# Starred values were filed as active, the others as inactive; ? = inconclusive; . = no result given.
SMILES,Sa RN4220 lethal,Sa ugtP lethal,BJeLR viability,PrP 5UTR inh,Bead autofluor,Mtb hypoxia inh,Mtb hypoxia inh growth
O=C(NCc1ccc(Cl)cc1)C1CCN(S(=O)(=O)c2ccccc2)CC1,0.3,-3,-7,-8,4432,8,16
Cc1cc(OCC(=O)OCC(=O)Nc2ccc(Cl)cn2)ccc1Cl,2.5,-1,.,-14,3830,0,-5
O=C(Nc1cc(S(=O)(=O)N2CCCCCC2)ccc1OCC(F)(F)F)c1ccc(=O)[nH]c1,11,7,.,-17,5467,5,6
O=C(c1ccccc1)c1c[nH]c(C(=O)NNc2cccc(Cl)n2)c1,4.7,3,3,-18,4885,9,5
COc1ccc(C=NOCC(=O)N=Nc2c(O)[nH]c3ccc(Br)cc23)cc1,-4.9,2,.,.,.,4,6
Cn1c(=O)c2c(-c3ccccc3)n(Cc3ccccn3)cc2n(C)c1=O,.,.,1,-26,3244,.,.
CCOC(=O)C(C#N)=NNc1ccccc1C#N,3.8,0,.,.,.,6,1
O=C(CSc1nnc(-c2ccc(Br)cc2)o1)Nc1cccc(C(=O)O)c1,7.0,2,1,71*,5906,4,-1
C=CC(CC(C)C)N(Cc1ccccc1)S(=O)(=O)N(Cc1ccccc1)C(C=C)CC(C)C (centres undefined),-6.8,-14,.,.,.,2,2
CN(C(=O)c1ccccc1C(=O)OCC(=O)c1ccccc1)c1ccccc1,0.9,-2,.,-14,4176,11,4
Cc1ccc2nc(-c3ccc(Br)cc3)cn2c1,8.6,-7,23,71*,3137,6,9
CC[C@@]12C(=O)N(c3cccc(F)c3)C(=O)N1C(c1cccc(C)c1)C1C(=O)N(Cc3ccccc3)C(=O)C12 (some centres undefined),5.6,6,.,.,.,2,8
S=C(Nc1ccccc1)N1CCN(Cc2ccccc2)CC1,1.7,5,-4,-37,4897,-5,2
O=C(COC(=O)c1ccc(O)cc1)c1ccc2c(c1)OCCO2,1.3,8,.,-79,5793,1,-4
CC(C)[C@@H](C(=O)O)N(Cc1cccc(CN([C@H](C(=O)O)C(C)C)S(C)(=O)=O)c1)S(C)(=O)=O,.,.,-10,5,2933,.,.
COCCNC(=O)CN(C(=O)Cn1nnc2ccccc21)c1ccc(C)cc1,1.9,-4,-6,-30,3882,12,5
Cc1cccc(OCCC(=O)OCC(=O)Nc2c(C)nn(-c3ccccc3)c2C)c1,0.6,3,1,-12,5513,4,9
CCCc1c(C(=O)Nc2ccc(F)cc2F)cnn1-c1ccccc1,0.1,3,-3,-37,4325,0,9
C=CCn1c(=NC(=O)c2ccc(S(=O)(=O)N3CCCC3)cc2)sc2cc(NC(C)=O)ccc21,3.5,5,9,-8,10411,5,3
CC1(C)CC(=O)C(N=Nc2c(F)cccc2F)=C(O)C1,2.3,8,-3,-22,.,-1,2
CCc1ccccc1NC(=O)COC(=O)C1C2CC3OC(=O)C1C3C2 (centres undefined),2.2,3,5,-16,6507,-1,5
Cc1ccc(/C=C2/C(=N)N3N=C(CC(=O)N4CCCC4)SC3=NC2=O)cc1,15,-1,-9,-4,4813,3,-1
CCc1nn(CC(=O)N2CCN(CC)CC2)c(=O)c2cc3sccc3n12,-5.8,-8,-9,-14,4506,.,.
Cc1cc(C)c(C)c(S(=O)(=O)NCc2ccncc2)c1C,2.3,9,15,-9,4058,5,2
CCOC(=O)C1CCN(C(=O)COC(=O)c2nc3nc(C)cc(C)n3n2)CC1,4.9,4,8,-8,?,-1,-4
Cc1nc2cc(NC(=O)NCc3ccco3)ccc2n1C,3.6,0,-2,-70,8516,15,2
COCc1cc(C)n(CC(=O)N2CCCC2)c(=O)c1C#N,0.0,8,-9,-14,2559,7,2
COc1ccc(Cl)cc1N(CC(=O)Nc1cccc(SC)c1)S(C)(=O)=O,1.5,5,-5,-17,21540*,15,-1
COc1cc(N)c(Cl)cc1C(=O)OCC(=O)N(C)C1CCCCC1,6.0,2,.,2,5592,10,8
C=CCOc1ccc(/C=N/NC(=O)CN(c2cc(Cl)ccc2OC)S(=O)(=O)c2ccc(C)c([N+](=O)[O-])c2)cc1,.,.,-6,-27,2564,.,.
CCNC(=O)Cn1c(=O)c2c(ncn2Cc2ccccc2)n(Cc2ccccc2)c1=O,1.9,5,-2,-30,11475,-2,1
O=C(c1ccccc1)N1CCN(C(=O)N2CCOCC2)CC1,2.5,1,-8,-10,3897,8,12
CCOc1ccc(S(=O)(=O)N2CCCC(C(=O)N3CCOCC3)C2)cc1Cl (centres undefined),2.3,4,-12,-12,3709,-5,-7
O=C(N/N=C/c1cccc([N+](=O)[O-])c1)c1cc2c(ccc3ccccc32)o1,.,.,-9,-7,3158,.,.
NC(=O)COC(=O)c1ccc(NS(=O)(=O)c2ccc3c(c2)OCCO3)cc1,0.2,-2,20,-7,4260,10,0
CC(C)CN(C(=O)CN1CCc2ccccc21)c1c(N)n(CC(C)C)c(=O)[nH]c1=O,3.7,8,13,-15,4624,-6,-2
O=C(N/N=C/c1c(F)c(F)c(F)c(F)c1F)c1cccc(S(=O)(=O)N2CCOCC2)c1,.,.,3,-18,4236,.,.
CCOc1nc(-c2ccccc2)ccc1-c1noc(-c2ccco2)n1,4.6,-4,-1,-15,4051,3,4
CSCCC(NC(=O)c1ccccc1)C(=O)N(C)CC(=O)Nc1ccc(N2CCOCC2)cc1 (centres undefined),0.4,3,3,-12,4805,15,6
Oc1c(Cl)cc(Cl)cc1CNc1ccccn1,-0.4,13,-2,-21,3925,17,7
COc1cc(CCC(=O)OCn2nnc3ccccc3c2=O)cc(OC)c1OC,1.7,-2,-7,-22,4063,5,2
Cc1ccc(S(=O)(=O)NC(=O)Nc2cc(C)no2)cc1,2.6,0,2,-4,3825,2,-9
COc1ccc(C)cc1N(CC(=O)N1CCCC1)S(C)(=O)=O,0.5,4,-6,-46,3853,9,8
COc1cc(C2C(Oc3ccccc3C)C(=O)N2Cc2ccc(F)cc2)cc(OC)c1OC (centres undefined),3.8,1,1,-24,10718,9,3
C=CCSc1n[nH]c(-c2ccc(OCCC)cc2)n1,1.7,6,5,-93,10793,2,13
Cc1cc(C)nc(N2CCC(C(=O)NC3CC3)CC2)n1,3.5,6,-2,-4,4354,3,7
CCOc1ccccc1OCC(=O)NC1CCCCC1,4.2,9,-5,-32,10848,23,9
COc1ccc(-n2cc(-c3ccccc3)c3c(N4CCN(CCO)CC4)ncnc32)cc1,-0.6,-5,-8,2,20444*,-6,7
COc1ccc(C(=O)n2nc(C#N)c(C#N)c2N)cc1,0.7,4,-6,-21,4365,-7,-1
Nc1ncc(Br)cc1S(=O)(=O)Nc1cc(C(F)(F)F)cc(C(F)(F)F)c1,.,.,11,-21,5220,.,.
O=C1CCC(C(=O)N2CCCCCC2)CN1Cc1cccc(C(F)(F)F)c1 (centres undefined),0.8,9,1,-32,5075,5,4
Cc1ccc(C2NC(c3ccc(C)cc3)C([N+](=O)[O-])C(C)(C)C2[N+](=O)[O-])cc1 (centres undefined),0.5,10,-4,-12,2150,-2,4
CCNc1nc(SC(C)C(=O)OC)nc(N(C)C)n1 (centres undefined),-1.4,-13,7,-3,3417,-9,-5
CCC(=O)Nc1ccc(NC(=O)CSc2nnnn2C(C)C)cc1,0.7,4,0,-7,2301,.,.
CCCn1nnc(NC(=O)c2ccccc2Cl)n1,1.7,13,0,-43,11564,-1,7
COc1ccccc1N(CC(=O)Nc1ccccc1C(=O)NCC(C)C)S(C)(=O)=O,2.6,2,6,-36,4230,17,6
Cc1nc2nc(SCC(=O)c3ccccc3)[nH]c2cc1Br,3.0,-22,3,.,6021,13,7
COc1cc(C(=O)NC(C)c2cc(C)ccc2C)ccc1OCC(=O)N1CCOCC1 (centres undefined),6.5,2,.,-36,3657,9,4
COc1ccc(C(=O)N(C)CC(=O)Nc2cccc(F)c2)cc1S(=O)(=O)NC1CCCC1,0.2,-1,4,-21,5216,8,-1
CC1CC2(C)C(=CC1=O)CCC1C2C(O)CC2(C)C1CCC2(O)C(=O)CO (centres undefined),4.3,1,.,-28,4205,15,9

# A different layout for 6 compounds above:
# Under each structure – Sa RN4220 lethal	Sa ugtP lethal	BJeLR viability	PrP 5UTR inh	Bead autofluor	Mtb hypoxia inh	Mtb hypoxia inh growth
O=C(N/N=C/c1c(F)c(F)c(F)c(F)c1F)c1cccc(S(=O)(=O)N2CCOCC2)c1
 : .	.	3	-18	4236	.	.
CCOc1nc(-c2ccccc2)ccc1-c1noc(-c2ccco2)n1
 : 4.6	-4	-1	-15	4051	3	4
CSCCC(NC(=O)c1ccccc1)C(=O)N(C)CC(=O)Nc1ccc(N2CCOCC2)cc1 (centres undefined)
 : 0.4	3	3	-12	4805	15	6
Oc1c(Cl)cc(Cl)cc1CNc1ccccn1
 : -0.4	13	-2	-21	3925	17	7
COc1cc(CCC(=O)OCn2nnc3ccccc3c2=O)cc(OC)c1OC
 : 1.7	-2	-7	-22	4063	5	2
Cc1ccc(S(=O)(=O)NC(=O)Nc2cc(C)no2)cc1
 : 2.6	0	2	-4	3825	2	-9

# Remaining list, next part.
SMILES,Sa RN4220 lethal,Sa ugtP lethal,BJeLR viability,PrP 5UTR inh,Bead autofluor,Mtb hypoxia inh,Mtb hypoxia inh growth
O=C(NCC1CCCO1)C(c1cccs1)N(Cc1ccccc1Cl)C(=O)c1ccc(-c2ccccc2)[nH]1 (centres undefined),-1.0,-17,-21,-2,2123,7,3
COc1ccc(Nc2n[nH]c(N)c2C(N)=O)cc1,3.7,5,4,-22,4563,1,7
Clc1cccc(CN2CCCCCC2)c1Cl,5.9,10,8,-14,4089,11,14
O=C(CCC1CCCC1)N=C1SC2CS(=O)(=O)CC2N1Cc1ccccc1 (centres undefined),6.7,-5,8,-19,5251,0,-3
Cc1ccnc(NC(c2ccncc2)c2c(C)[nH]c3ccccc23)c1 (centres undefined),8.3,4,-6,-20,2802,12,11
O=C1CC(O)(C(F)(F)F)Oc2c1ccc1ccccc21 (centres undefined),54,41,2,-61,6751,3,6
CCOc1ccc(Br)cc1S(=O)(=O)Nc1cccc(S(=O)(=O)NC2=NCCC2)c1,3.8,4,1,-1,3318,13,7
Cn1c(NCc2ccccc2O)nc2ccccc21,0.1,1,5,-66,4817,.,.
CCOC(=O)/C(C#N)=C\c1ccc(CC)s1,6.7,8,-1,-41,3271,8,7
COc1ccc(N2C(=O)C(CC(=O)Nc3ccccc3)N(Cc3ccc4c(c3)OCO4)C2=O)cc1 (centres undefined),5.0,-1,0,-4,9633,6,7
CCOc1ccc(C(=O)NNC(=O)CCNC(=O)c2ccc(Br)cc2)cc1OC,0.2,0,.,-23,4078,8,10
Cc1ccc(O)c(CN2CCC3CCC(C3)C2)c1 (centres undefined),3.1,-3,.,-20,4151,6,0
Cc1ccc(NC(=O)CSc2nnc(NC(=O)CN3CCOCC3)s2)cc1,0.6,0,-5,-6,16377*,1,5
O=C(CCC1CCCCC1)NCCN1CCOCC1,3.7,1,-4,3,.,4,3
CCOC(=O)c1cc2cc3ccccc3cc2[nH]1,0.5,-4,.,-71,8411,-2,11
CCN(CC)S(=O)(=O)c1cc(OC)c(Cl)cc1Cl,3.5,4,7,.,9795,10,3
CCCCOC(=O)Nc1ccc(C(=O)OCCC)cc1,-6.4,-31,-4,-35,22577*,-10,0
COc1ccc(C=NNC(=O)C(=O)NCc2cccnc2)cc1,1.6,4,.,.,.,2,-6
COc1ccc(C(=O)N2CC3(C)CC2CC(C)(C)C3)cc1 (centres undefined),12,5,-2,12,3181,4,7
Nc1cc(=O)[nH]n1C1CCCCC1,1.6,4,1,-29,2510,0,14
CCOC(=O)CN1C(=O)Nc2ccc(Br)cc2C1c1ccccc1 (centres undefined),5.6,-2,-2,-13,3372,15,8
CCCCn1nnnc1SCC(=O)Nc1ccc(N(C)C)cc1,-2.6,7,-5,4,6390,4,-2
CCN1CCN(C(=O)CS(=O)(=O)Cc2nc(-c3ccc(C)cc3)oc2C)CC1,-9.2,-3,0,-5,6159,4,11
O=C(CCCOc1ccccc1)n1nnc2ccccc21,4.8,4,13,-28,11526,11,5
C#CC(CC)(CC)NC(=O)c1c(C)noc1C,-1.5,-8,12,-21,10395,-4,6
